# Bioassay records as filed in PubChem BioAssay.
# VDR inh – vitamin D3 receptor (human) inhibition. VDR-SRC2-3 peptide fluorescence polarization, 2 h. Potency, µM, for the others: max response, negative = inhibition, actives largely listed as inhibitors. 0.93% of 400,000 active; active means well fitted inhibition curve with a large enough effect; inconclusive means small, poorly fitted or top-dose-only effect, or another doubt; inactive means no such curve, though single readings can be large or run the other way; further: series mostly up to about 120 µM
# Target sequence (P11473 whole entry, looked up): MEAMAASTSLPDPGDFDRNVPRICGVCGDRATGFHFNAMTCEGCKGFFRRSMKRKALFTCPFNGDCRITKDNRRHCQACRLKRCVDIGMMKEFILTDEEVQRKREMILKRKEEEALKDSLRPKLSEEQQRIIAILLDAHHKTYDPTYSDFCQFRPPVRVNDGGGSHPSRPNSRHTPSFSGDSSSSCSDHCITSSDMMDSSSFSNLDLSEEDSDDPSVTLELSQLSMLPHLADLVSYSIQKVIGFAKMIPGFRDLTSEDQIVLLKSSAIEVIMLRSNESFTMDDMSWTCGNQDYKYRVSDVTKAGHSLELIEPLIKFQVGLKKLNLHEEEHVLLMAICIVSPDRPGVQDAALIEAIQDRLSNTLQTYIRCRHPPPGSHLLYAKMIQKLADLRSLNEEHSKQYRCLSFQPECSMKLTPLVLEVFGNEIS
#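 FP read-out; VDR + SRC2-3 coactivator peptide; 23 nl compound by pintool; 2 h RT incubation; reagents held at 4 deg C, protected from light.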
# * hit, by the source's call; ? = inconclusive; [ ] = dose if it differs, or a comment. On the % scale 0 is the no-effect control and ±100 the full control effect; potency means the concentration at half of the fitted maximal effect. Only part of the results is shown; rates above refer to the full screens.
mol | VDR inh
O=C(Cc1ccc(NC(=O)C2CCN(C(=O)C3CCCCC3)CC2)cc1)Nc1cccc(C(=O)N2CCCCC2)c1 | 0%
CS(=O)(=O)N1CCC(Oc2ccccc2C(=O)NC(C2CC2)C2CC2)CC1 | 10%
O=C(Cn1c2ccccc2c2nc3n(c(=O)c21)CCS3)Nc1ccccc1 | -1%
CCCn1nnnc1NCc1ccccc1F | 6%
CCn1ncc(NC(=O)Nc2cccc(C(F)(F)F)c2)c1C(N)=O | -3%
O=C(CN1CCCCCC1)N/N=C/c1ccc(Cl)c(Cl)c1 | -12%
CCn1c(O)c(/C=C2\C=NN=C2c2ccc(C)cc2)sc1=S | -1%
Cc1ccc(NC(=O)N2CCN3CCCCC3C2)cc1F (stereo unspecified) | 1%
CCOC(=O)C1=NNC(=O)C1 | -6%
COc1cc(S(=O)(=O)Nc2cccc(C)c2)ccc1NC(=O)c1ccncc1 | -7%
O=C(COC(=O)/C=C/c1cccc([N+](=O)[O-])c1)Nc1cccnc1Cl | -16%
CCN(CC)CCNC(=O)CCc1c(C)nc2c(c(C)nn2-c2ccc(C)cc2)c1C | 16%
N#Cc1c(N2CCCC2)nsc1-c1ccccc1 | 33%[activator]
O=C(CSc1nc2[nH]c(=O)cc(O)c2s1)Nc1ccc(Br)cc1 | 4%
COc1ccc(CCNC(=O)c2cc(CC(C)C)on2)cc1OC | 13%
COc1ccc(N(CC(=O)Nc2cc(C)ccc2C)S(=O)(=O)c2ccccc2[N+](=O)[O-])c(OC)c1 | -11%
Cc1ccc2[nH]cc(C(=O)CN3CCN(c4ccccc4F)CC3)c2c1 | 0%
c1ccc2sc(Sc3ncnc4sccc34)nc2c1 | -7%
Cc1cc(C)c(NC(=O)C2c3ccccc3Oc3ccccc32)c(C)c1 | -6%
COc1ccc(-c2csc3nc(C)nc(N4CCC(C)CC4)c23)cc1OC | -29%
O=C(NCc1cccnc1)c1cc2ccccc2oc1=O | -9%
CC(C(=O)N1CCOCC1)c1ccccc1 (stereo unspecified) | -15%
Cn1nc(C(=O)N2CCN(c3ccc(Cl)cc3)CC2)c2c1-c1ccccc1SC2 | -4%
CC(Sc1cnc2ccccc2n1)C(=O)O (stereo unspecified) | 8%
COc1ccc(S(=O)(=O)N2CCCCCC2)cc1C(=O)N(CC(C)C)C1CCS(=O)(=O)C1 (stereo unspecified) | -15%
Cc1ccccc1C(=O)Nc1cc(C(F)(F)F)ccc1-n1cncn1 | 6%
O=C(COc1c(F)c(F)cc(F)c1F)NC(=O)NC1CCCC1 | -8%
COCCCNC(=S)Nc1c(C)cc(C)cc1C | 8%
Cc1ccc(S(=O)(=O)NCC(=O)N(CC(=O)NCC2CCCO2)Cc2ccco2)cc1 (stereo unspecified) | -9%
O=C(CN1CCCc2ccccc21)NCCc1ccc(F)cc1 | 18%
CCOc1ccc(-c2nnc(SCC(=O)NCCc3ccccc3)nc2-c2ccc(OCC)c(OC)c2)cc1OC | 10%
COc1cc(OC)cc(C(=O)NC(c2ccccc2)c2ccccc2)c1 | 1%
COc1ccccc1N=c1scc(-c2ccc3c(c2)NC(=O)CO3)n1CC1CCCO1 (stereo unspecified) | 13%
O=C(NCCc1ccccc1F)C1CCC(=O)N(Cc2ccccc2F)C1 (stereo unspecified) | -17%
CSc1nnc(-c2ccc([N+](=O)[O-])cc2)o1 | 5%
CNS(=O)(=O)c1cccc(C(=O)OCC(=O)NC(C)CCc2ccccc2)c1 (stereo unspecified) | -17%
COc1ccc(NC(=O)CCc2ccccc2)cc1NC(=O)c1ccco1 | 9%
Cc1nn(C)c(C)c1CN(C)S(=O)(=O)c1ccc2ccccc2c1 | -2%
CCOc1nc(Nc2ccc([N+](=O)[O-])cc2)nc(NC(C)(C)C)n1 | -25%
Cc1cccc(NC(=O)C(=O)N/N=C/c2ccncc2)c1 | -3%
COc1ccc(NC(=O)Nc2cc(C(=O)O)ccc2N2CC3CC(C2)c2cccc(=O)n2C3)c(OC)c1 (stereo unspecified) | -10%
COc1ccccc1N1CCN(C(=O)c2cnn(-c3ccc(F)cc3F)c2C2CCNCC2)CC1 | 11%
O=C1c2ccccc2C(=O)N1Nc1ccccc1 | -9%
COCC(C)n1c(SCC(=O)Nc2sccc2C(N)=O)nc2ccccc2c1=O (stereo unspecified) | -12%
NC(=O)C1=C[C@H](c2coc3ccccc3c2=O)C[C@H](OCCCCO)O1 | 5%
CCOC(=O)c1c(NC(=O)c2cc(=O)c3c(C)cc(C)cc3o2)sc(C(C)=O)c1C | 14%
COc1ccc(CCNC(=O)COC(=O)c2ccco2)cc1OC | 17%
O=C(N/N=C/c1ccc(Sc2ccccn2)o1)c1cc2ccccc2cc1O | -17%
Cc1cccc(-c2n[nH]c(=S)n2-c2ccccc2)c1[N+](=O)[O-] | -20%
O=C(CN1CCN(c2ccc(O)cc2)CC1)Nc1cc(S(=O)(=O)N2CCOCC2)ccc1Cl | -20%
Cc1c(/C=N\NC(=O)C2(C)CC2(Cl)Cl)cnn1C (stereo unspecified) | -9%
COc1ccc(C(=O)c2cn(CC(=O)Nc3ccc4c(c3)OCCO4)c3ccc(OC)cc3c2=O)cc1 | -14%
COc1ccc(CNc2nc(-c3ccc(OC)cc3)cc(C(F)(F)F)n2)cc1 | 3%
Fc1cccc(NCc2cccn2-c2nnc(N3CCOCC3)s2)c1 | 4%
COc1cc(/C=N/NC(N)=O)ccc1OC(=O)c1cccs1 | 8%
COc1cccc(N/C=C/C(=O)c2ccc(OC)c(OC)c2)c1 | -27%
CCCCCOc1ccc(C(=O)CCC(=O)Nc2ccc(NC(C)=O)cc2)cc1 | -4%
CCc1ccc(NC(=O)N(Cc2ccco2)C(C)c2cccs2)cc1 (stereo unspecified) | -1%
NC(=O)c1cc(S(=O)(=O)NCCc2ccccc2)cs1 | -23%
CS(=O)(=O)Oc1ccc(/C=N/NC(=O)c2ccncc2)cc1 | -4%

# Three entries from above, ordered by the number in VDR inh, largest number first:
mol | VDR inh
COc1ccc(CCNC(=O)COC(=O)c2ccco2)cc1OC | 17%
COCC(C)n1c(SCC(=O)Nc2sccc2C(N)=O)nc2ccccc2c1=O (stereo unspecified) | -12%
CNS(=O)(=O)c1cccc(C(=O)OCC(=O)NC(C)CCc2ccccc2)c1 (stereo unspecified) | -17%

# Further results
mol | VDR inh
CCCn1nc(NC(=O)c2cccc(Cl)c2)c2cc3cccc(C)c3nc21 | 10%
COc1ccccc1N1CCN(C2CCN(C(=O)c3cccs3)CC2)CC1 | 9%
CC(=O)/C(C)=N/O | -1%
O=C(Nc1cccc(C(F)(F)F)c1)c1cc(-c2ccc(Cl)s2)nc2ccccc12 | -22%
COc1cccc(NC(=O)CSc2nc3ccccc3cc2Cc2ccccc2)c1 | -12%
CCCn1c(N2CCN(CC(=O)c3c(C)n(C)c4ccccc34)CC2)nc2c1c(=O)[nH]c(=O)n2C | -1%
CC(C)CC(O)(CC(C)C)C(=O)NNc1ccccc1 | 11%
Cc1ccccc1-c1cc(Nc2ccccc2)ncn1 | ?
O=C(Nc1ccccc1Sc1ccccc1)c1ccccc1 | -2%
COc1ccc(S(=O)(=O)N(CC(=O)NCc2cccnc2)Cc2ccccc2)cc1 | -5%
COc1ccc(OC)c(-n2nnnc2SCC(=O)Nc2ccccc2N2CCOCC2)c1 | -8%
Cc1ccc(CN2C(=O)c3ccccc3Sc3ccc(C(=O)NC4CCCC4)cc32)cc1 | 11%
Nc1cccc(CP(=O)(c2ccccc2)c2ccccc2)c1 | -18%
COc1cc(CO)cc(Br)c1OCC(=O)Nc1cccc2ccccc12 | -3%
O=C(NCc1cccnc1)C1CCN(c2ccc(S(=O)(=O)N3CCOCC3)cc2Cl)CC1 | 1%
C/C(CC(=O)Nc1ccc(Cl)cc1C(F)(F)F)=N\NC(N)=S | -10%
CN(C)S(=O)(=O)c1cc(C(=O)Nc2ccn(C)n2)c(Cl)cc1Cl | 5%
COc1ccc(N2C(=O)C3CCCN3C2c2cccc(C)c2)cc1Cl (stereo unspecified) | -2%
O=C(CSc1nnnn1-c1ccccc1)N1CCc2ccccc2C1 | 6%
O=C(COc1ccccc1Cl)Nc1ccccc1C(=O)Nc1cccc(C(=O)O)c1 | 1%
C=CCn1c(SCc2ccccc2C#N)nnc1-c1cc(Br)ccc1O | -13%
Cc1ccccc1C(=O)Nc1ccc(OCc2cc(=O)n3ccccc3n2)cc1 | 32%[activator]
CN(C)Cc1nc2ccccc2c(=O)n1CC(=O)Nc1cccc(S(=O)(=O)N2CCOCC2)c1 | 15%
Cc1nn2c(CN(C(=O)COc3ccccc3)c3ccccc3)nnc2c2ccccc12 | -4%
Cc1cnc(NC(=O)c2ccncc2)s1 | -5%
c1ccc2c(c1)oc1c(Nc3ccc4c(c3)OCO4)ncnc12 | 8%
C=CCn1c(SCC(N)=O)nnc1-c1cccc(Br)c1 | -7%
COc1ccc(S(=O)(=O)N(C)Cc2cccs2)cc1Br | -17%
COc1ccc(Br)cc1S(=O)(=O)n1nc(C)cc1C | 0%
Cc1ccc(S(=O)(=O)Oc2ccccc2/C=N/NC(=O)c2nn(C)cc2[N+](=O)[O-])cc1 | ?
O=C1CCCc2c1cc(C(=O)NCc1ccco1)c(=O)n2-c1ccccc1 | -5%
COc1ccc(CC(=O)Nc2nc(-c3ccc(F)c(F)c3)cs2)cc1 | 16%
COC(=O)c1ccccc1NC(=O)c1noc2c1CC(C(C)(C)C)CC2 (stereo unspecified) | 4%
CNc1cc(-c2ccccc2C(F)(F)F)ncn1 | -2%
CCOC(=O)c1c(C)n(O)c2ccc(Cl)cc2c1=O | 17%
CCOc1cccc(-c2nc3ccccc3c(=O)o2)c1 | -18%
COc1cccc(C2CC(=O)Nc3cc4c(cc32)CCC4)c1 (stereo unspecified) | -5%
C=CCN1C(=O)CC(C(=O)NC)SC1=Nc1ccc(C(=O)OCC)cc1 (stereo unspecified) | -6%
COc1ccccc1NC(=O)c1c(NC(=O)c2ccccc2F)sc2c1CCC2 | 1%
C/C(=N\NC(=O)CN(c1ccc(C)cc1)S(C)(=O)=O)c1cccs1 | -15%
CN(C)N=Nc1ccc(-c2cn(Cc3ccccc3)cn2)cc1 | ?
CCCc1nnc(NC(=O)CCC(=O)NCc2ccc(OC)cc2)s1 | -11%
O=C(CCc1nc2ccccc2c(=O)[nH]1)N1CCN(c2ccc(F)cc2)CC1 | 26%
COc1ccc(Br)cc1CN1CCCC(C(=O)N2CCCCCC2)C1 (stereo unspecified) | -6%
Cc1nc2ccc(C(=O)OCc3ccccc3Br)cc2nc1C | -7%
NC(=O)C1=C[C@@H](c2ccccc2)C[C@@H](OCCCCO)O1 | -6%
CCCOc1ccccc1-c1nc(SCC(=O)c2ccccc2)n[nH]1 | 15%
O=C(NCc1ccc(F)cc1)C1CCN(S(=O)(=O)c2cccnc2)CC1 | -20%
COc1c(Br)cc2c(C)c(C(=O)O)oc2c1Br | -2%
N#CC1=C(N)Oc2n[nH]c(-c3cccs3)c2C1c1ccccc1C(=O)O (stereo unspecified) | -12%
CCOc1ccc(S(=O)(=O)N(CC(=O)Nc2cccnc2)c2ccccc2)cc1 | -7%
CSc1ncc(C(=O)N2CCN(c3cccc(Cl)c3)CC2)c(C)n1 | 19%
CC(C)Cn1c(-c2ccc(F)cc2)n[nH]c1=S | 4%
CCOC(=O)C1CCN(C(=O)C(CCSC)NC(=O)c2ccccc2OC)CC1 (stereo unspecified) | -1%
O=C(/C=C/NCC(=O)c1ccccc1)c1ccc(Br)cc1 | -25%
CCOC(=O)c1cccc(NC(=O)CCc2nc3cccnc3n2-c2ccccc2)c1 | ?
O=S(=O)(NCC1CCCO1)c1ccc(Oc2ccccc2)cc1 (stereo unspecified) | 6%
CN1CCN(C(=O)/C(=C/c2cn(C)c3ccccc23)NC(=O)c2ccccc2)CC1 | 5%
CCOC(=O)c1sc(NC(=O)C2CCC2)cc1C | -3%
COc1ccc(-c2cc3ccc(OCC(C)=O)cc3oc2=O)cc1 | 10%

# Six compounds out of the list, ordered by heavy-atom count, rising.
mol | VDR inh
COc1c(Br)cc2c(C)c(C(=O)O)oc2c1Br | -2%
O=S(=O)(NCC1CCCO1)c1ccc(Oc2ccccc2)cc1 (stereo unspecified) | 6%
COc1ccc(Br)cc1CN1CCCC(C(=O)N2CCCCCC2)C1 (stereo unspecified) | -6%
COC(=O)c1ccccc1NC(=O)c1noc2c1CC(C(C)(C)C)CC2 (stereo unspecified) | 4%
COc1ccccc1NC(=O)c1c(NC(=O)c2ccccc2F)sc2c1CCC2 | 1%
CN1CCN(C(=O)/C(=C/c2cn(C)c3ccccc23)NC(=O)c2ccccc2)CC1 | 5%

# Two entries from above, with each value named.
SMILES: O=C(/C=C/NCC(=O)c1ccccc1)c1ccc(Br)cc1
- VDR inh: -25%

SMILES: CNc1cc(-c2ccccc2C(F)(F)F)ncn1
- VDR inh: -2%

# Further structures follow.
mol | VDR inh
CCn1cc(C(=O)N2CCCC(CO)(Cc3ccccc3C)C2)cn1 (stereo unspecified) | -14%
CCOC(=O)N1CCc2c(sc3c2c(=O)n(Cc2ccccc2)c(=O)n3Cc2cccc(Cl)c2)C1 | -18%
Cc1cc(=O)oc2cc(OCC(=O)N3CCN(c4ccc(F)cc4)CC3)c(Cl)cc12 | -26%
CCOC(=O)c1sc(N)c(C#N)c1CSc1nnc(C2CC2)n1N | -2%
O=C(ON=C1CCN(S(=O)(=O)c2ccccc2)CC1)c1cccc(Cl)c1 | -5%
O=S(=O)(c1ccc(Cl)nc1)N1CCN(Cc2ccc3c(c2)OCO3)CC1 | -7%
O=[N+]([O-])c1ccccc1/C=N/N1CCN(Cc2ccccc2)CC1 | -7%
O=C(CCC1CCCC1)Nc1ccc(OCC(=O)N2CCOCC2)cc1 | 3%
